# VDR inh – Inhibitors of the vitamin D receptor (VDR): qHTS | Vitamin D3 receptor (Homo sapiens), P11473 | VDR-SRC2-3 peptide fluorescence polarization, 2 h | Potency, µM, for the others: max response, negative = inhibition, actives largely listed as inhibitors | 0.93% of 400,000 active; active = well fitted inhibition curve with a large enough effect; inconclusive = small, poorly fitted or top-dose-only effect, or another doubt; inactive = no such curve, though single readings can be large or run the other way; also: series mostly up to about 120 µM
# Target sequence (P11473 whole entry, looked up): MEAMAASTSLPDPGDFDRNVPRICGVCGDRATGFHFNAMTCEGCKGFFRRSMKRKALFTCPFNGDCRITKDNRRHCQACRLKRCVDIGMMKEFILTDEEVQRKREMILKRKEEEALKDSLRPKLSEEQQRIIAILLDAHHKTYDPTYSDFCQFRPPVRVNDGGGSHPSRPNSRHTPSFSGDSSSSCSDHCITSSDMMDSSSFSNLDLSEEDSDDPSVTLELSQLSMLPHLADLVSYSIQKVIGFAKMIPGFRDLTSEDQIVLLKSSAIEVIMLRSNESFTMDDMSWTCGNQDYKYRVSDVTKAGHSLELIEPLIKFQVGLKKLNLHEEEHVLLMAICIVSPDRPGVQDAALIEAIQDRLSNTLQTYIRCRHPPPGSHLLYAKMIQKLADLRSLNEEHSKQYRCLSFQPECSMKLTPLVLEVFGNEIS
#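 Compounds are added to VDR with labelled SRC2-3 coactivator peptide and held 2 h at room temperature. Inhibition of the VDR–peptide interaction is then read as a change in fluorescence polarization.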
# Numbers without * were called inactive; ? = inconclusive; & = joins results of further samples. % is scaled to controls: 0 for no effect and ±100 for the full control effect; potency is read from the fitted curve at half-maximal effect.
SMILES,VDR inh
COc1ccc(-c2cc(C(F)(F)F)c(C#N)c(=O)[nH]2)cc1,-1%
Cc1cccc(C(=O)OCC(=O)N(C)c2ccccc2)c1C,-13%
CCN(CC)c1ccc(NC(=O)CN2C(=O)c3cccnc3Oc3ccccc32)c(C)c1,10%
COc1cccc(Nc2nc(-c3ccccc3O)nc3ccccc23)c1,7%
COc1cc(/C=C2\SC(=S)N(CCC(=O)Nc3ccccc3)C2=O)cc(OC)c1OC,1%
CCOC(=O)C1C(c2ccccc2)NC(=S)NC1(C)O (stereo not given),-12%
Cc1ccc(-n2nc3c(=O)n(C(C)C(=O)NCCCc4ccccc4)nc(C)c3c2C)cc1 (stereo not given),-5%
O=C(CNC(=O)C1CCCCC1)OCC(=O)c1ccc([N+](=O)[O-])cc1,?
CC[C@]1(c2ccccc2)C(=O)N(C(=O)OC)N1C(=O)OC,?
CCOc1ccccc1N1CCN(C(=O)c2ccccc2SCC(=O)N2CCCC2)CC1,-15%
CC1CCN(C(=O)COC(=O)c2ccc(N3CCCC3=O)cc2)CC1,2%
Cc1c(Cl)cccc1NC(=S)NCCc1ccc(F)cc1,-18%
Cc1n[nH]c(=O)c2c(NC(=O)CSc3nncs3)oc(C)c12,4%
CC(=O)c1cccc(NC(=O)CN2C(=O)CCc3cc(S(=O)(=O)N4CCCCC4)ccc32)c1,-12%
CC(=O)c1cccc(S(=O)(=O)N2CCN(c3nc4cc(C)cc(C)c4cc3C#N)CC2)c1,-3%
CCC(C(=O)NC(C)(C)C)N(Cc1cccs1)C(=O)CNS(=O)(=O)c1ccccc1 (stereo not given),10%
COc1ccc(NC(=O)CCOc2ccccc2F)cc1S(=O)(=O)N1CCCCC1,8%
O=C(NCC1CCCO1)C(c1ccc(F)cc1)N(Cc1ccc(F)cc1)C(=O)Cn1nnc(-c2cccs2)n1 (stereo not given),-9%
C[C@@H]1COC(=O)[C@@H](CC(=O)OC(C)(C)C)C/C=C\C[C@H](CC(=O)NCCO)C(=O)N1,6%
CC(=O)Nc1ccc2c(c1)N(C(=O)CN(C)C)c1ccccc1CC2,9%
CCCc1noc2c1C(c1ccoc1)C(C#N)=C(N)N2 (stereo not given),-13%
CCOC(=O)C1CCCN(S(=O)(=O)c2cc3[nH]c(=O)c(=O)[nH]c3cc2C)C1 (stereo not given),-8%
COc1ccc(CCn2nnnc2CN2CCN(C(=O)c3ccco3)CC2)cc1OC,-4%
Nc1c(C(=O)NC2CCCC2)c2nc3ccccc3nc2n1/N=C/c1ccco1,-7%
CC(C)[C@H](NC(=O)c1c(F)cccc1F)C(=O)Nc1cccc(Br)c1,4%
NNC(=O)C(Cc1c[nH]c2ccccc12)NC(=O)c1ccccc1 (stereo not given),0%
O=C(C1CCCN(Cc2ccc3c(c2)OCO3)C1)N1CCCC1 (stereo not given),9%
CC(C)COc1cccc(C(=O)N(C)CC(=O)Nc2cccc3ccccc23)c1,-14%
O=S(=O)(NCC(c1ccco1)N1CCc2ccccc21)c1ccccc1 (stereo not given),15%
CCCS(=O)(=O)c1ncc(Cl)c(C(=O)Nc2c(C(=O)Nc3ccccc3)oc3ccccc23)n1,-1%
COc1ccccc1CCNC(=O)C(=O)NCC1OCCN1S(=O)(=O)c1ccccc1 (stereo not given),-15%
CCc1nnc(NC(=O)CSc2nccn2Cc2ccc(Cl)cc2)s1,6%
C=C1CCN(C(Cc2ccccc2)C(=O)NCc2ccccc2)S(=O)(=O)c2ccccc21 (stereo not given),-17%
CCC[C@@H]1CCCO[C@@](C(=O)NCc2ccccn2)(C(F)(F)F)C1,-8%&8%
COCCN(CC1CCCN(C2Cc3ccccc3C2)C1)C(=O)c1cccc(C)c1 (stereo not given),17%
COc1ccc(C(CC(=O)Nc2nccs2)n2cccc2)cc1 (stereo not given),19%
CCOc1ccccc1CC1C(=O)Nc2ccc(Br)cc21 (stereo not given),0%
COC(=O)C[C@H]1c2cc(C(F)(F)F)ccc2S(=O)(=O)N1C1CCCCC1,-29%
O=C(Nc1nc(-c2ccc(F)cc2)cs1)c1ccc(N2C(=O)CCC2=O)cc1,4%
Nc1c(C(=O)Nc2cccc(Cl)c2Cl)sc2nc(-c3cccnc3)ccc12,-13%
CCN(CC)S(=O)(=O)c1ccc(C(=O)OCC(=O)Nc2ccc(-c3nc4ccc(C)cc4s3)cc2)cc1,-9%
COc1nc(NC2CCCCC2)nc(N2CCCCCC2)n1,-5%
C#CCOCCOCCOCCNc1nc(N2CCN(C(=O)C([C@@H](C)CC)n3cc(C(N)CO)nn3)CC2)nc(N2CCN(C(=O)C([C@@H](C)CC)n3cc(C(N)COC(=O)C(F)(F)F)nn3)CC2)n1 (stereo not given in full),5%
Cc1cccc(-c2noc(-c3ccc(NCC4CCCO4)c([N+](=O)[O-])c3)n2)c1 (stereo not given),23%
COc1ccc(NC(=S)NCCCCCC(=O)C[N+](=O)[O-])cc1,?
Cc1ccc2c(CSc3nncs3)cc(=O)oc2c1,9%
COC(=O)c1sc(NC(=O)CSc2nnnn2C)nc1C,3%
CCOc1ccc(CCNC(=O)Cn2c(-c3nonc3N)nc3ccccc32)cc1OCC,-10%
COCCCN1CN(S(=O)(=O)c2cccs2)c2nc3ccccc3nc21,0%
COC(=O)C1C(=O)C=C(N2CCOCC2)CC1(C)C (stereo not given),1%
O=C(N/N=C/c1c[nH]c2ccc(Br)cc12)c1ccccn1,1%
Cc1ccc(C(=O)N/C(=C/c2ccc(C(C)C)cc2)C(=O)NCCCN2CCOCC2)cc1,-8%
S=c1[nH]c(-c2cccs2)cn1-c1ccccc1,-8%
CC1(NC(=O)c2cc(Cl)nc3ccccc23)CCS(=O)(=O)C1 (stereo not given),-4%
CCOC(=O)C1=C(CN2CCN(C(=O)c3ccco3)CC2)NC(=O)NC1c1ccc(C)cc1 (stereo not given),0%
COC(=O)C1C(=O)c2c([nH]c(C(=O)OC3CCCC3)c2C)CC1C (stereo not given),11%
O=C(c1ccc(C(=O)N2CCCc3ccccc32)nc1)N1CCCc2ccccc21,2%
CC1CCCN(C(=O)Cn2c(=O)oc3cc(S(=O)(=O)N4CCCCC4C)ccc32)C1 (stereo not given),-11%
O=C(Cn1cnc2c(cnn2-c2ccccc2)c1=O)c1ccc(Cl)cc1,0%
Cc1noc(C)c1COc1ccccc1C(=O)N1CCN(S(=O)(=O)c2ccccc2C(F)(F)F)CC1,-17%

# Later entries
SMILES,VDR inh
CCCCNc1c(-c2cccc(SC3CCCCC3)c2)nc2ccc(Cl)cn12,2%
Cc1ccc(S(=O)(=O)N2CCN(C(=O)CSc3cc(C)ccc3C)CC2)c(C)c1,-1%
Cc1sc2ncnc(NCCc3ccc(S(N)(=O)=O)cc3)c2c1C,4%
Cc1cc(C(=O)NCCc2ccc(Cl)cc2)c2ccccc2n1,-24%
CN1CCN(NC(=O)c2cc(-c3ccc(Cl)s3)nc3ccccc23)CC1,14%
Cc1ccc(C(=O)CC(=O)c2ccc(C(C)(C)C)cc2)cc1,16%
COc1ccc(S(=O)(=O)N2CCC(C(=O)N[C@@H](C)C(=O)NCc3ccc(F)cc3)CC2)cc1,11%
COc1cc(CN(CC2CCCO2)C(=O)c2ccccc2F)cc(OC)c1OC (stereo not given),4%
CCOc1ccccc1CNC(=O)c1ccc(NC(=O)C2=C(C)OCCS2)cc1,-14%
COc1cc(NC(=O)N2c3ccccc3Sc3ccccc32)cc(OC)c1,5%
COc1ccc(-c2c(-c3ccc(OCC(=O)NN)cc3O)n[nH]c2C(F)(F)F)cc1,-10%
COc1cccc(NC(=O)[C@@H]2CCCN2S(=O)(=O)c2cccc3cccnc23)c1,-2%
CCOc1ccc(CCNC(=O)CS(=O)(=O)Cc2nc(-c3cccc(OC)c3)oc2C)cc1,-17%
CCN(CC)c1ccc(C(=O)Nc2ccc3nc(N(CC)CC)cc(C)c3c2)cc1,0%
Cc1cc(=O)n(CC(=O)NCCN2CCOCC2)c2c1c(C)nn2-c1ccccc1,14%
COc1cc(CNC2CCCC2)cc(Br)c1OCC(=O)Nc1ccccc1C,-1%
O=C(NCCS(=O)(=O)NCCCc1ccccc1)c1ccccc1,20%
CC(C)(C)CC(C)(C)NC1=CC(=O)OC12CCCCC2,6%
COc1ccccc1N1CCN(CCCN2C(=O)C3CCCN3C2=O)CC1 (stereo not given),8%
COc1ccc(OC)c(-n2cnnn2)c1,0%
COc1ccc(C(=O)O)cc1S(=O)(=O)NC(C)(C)C,-25%
Cc1cccc(C(=O)NNC(=O)Nc2ccccc2)c1,4%
COc1cccc(-c2nnc(SCC(=O)Nc3ccc4c(c3)OCCO4)n2Cc2ccco2)c1,10%
CCc1nnc(NC(=O)CN2CCN(Cc3ccccc3Cl)CC2)s1,3%
COc1cc(OC)cc(C(=O)Nc2ccc(S(=O)(=O)N3CCCCC3c3cccnc3)cc2)c1 (stereo not given),7%
Cc1ccccc1-n1nc(CO)c(C(=O)NCC(c2ccccc2)c2ccccc2)n1,4%
Cn1c(=O)c2c(nc(Br)n2CC(=O)C23CC4CC(CC(C4)C2)C3)n(C)c1=O,-4%
CCCCc1nn2c(=O)cc(COC(=O)c3cccs3)nc2s1,6%
COc1ccccc1CC(=O)O/N=C(\N)c1ccccn1,-6%
CC(C)N(C(=O)CSc1nnc(CNc2ccc(F)cc2)o1)C(C)C,-5%

# Already shown: entries from further up.
SMILES,VDR inh
O=C(NCCS(=O)(=O)NCCCc1ccccc1)c1ccccc1,20%
CC(C)(C)CC(C)(C)NC1=CC(=O)OC12CCCCC2,6%
COc1ccccc1N1CCN(CCCN2C(=O)C3CCCN3C2=O)CC1 (stereo not given),8%
COc1ccc(OC)c(-n2cnnn2)c1,0%
COc1ccc(C(=O)O)cc1S(=O)(=O)NC(C)(C)C,-25%

# Further entries follow.
SMILES,VDR inh
CN(C(=O)/C=C/c1cnc2ccccc2c1)C1CCCCC1,-12%
Cc1ccc(S(=O)(=O)NCCC(=O)NNC(=O)c2ccccc2Cl)cc1C,-22%
Cc1ccc(S(=O)(=O)C2(C(=O)Nc3cccnc3)CC2)cc1,-1%
C=CCCO[C@@H]1O[C@@H](C)[C@H](O)C[C@H]1O,-24%
CCCOc1ccc(C(=O)NCC2OCCc3ccccc32)cc1 (stereo not given),-9%
CCCOc1ccc(N2C(=O)CC(N3CCN(c4ccccc4F)CC3)C2=O)cc1 (stereo not given),-2%
CSc1c(C#N)c(N)nc2sc(C(=O)c3ccccc3)c(N)c12,16%
COc1cccc(-c2cc3c(=O)n(-c4ccccc4)c(=S)[nH]c3s2)c1,-24%
N#Cc1c(NC(=O)CSc2ccccn2)oc(-c2ccccc2)c1-c1ccccc1,21%
Cc1cc(NC(=O)CSc2nc(C(C)C)nc3sc(C)c(C)c23)no1,-10%
Cc1cc(C)c(O)c(-c2cc(C(=O)Nc3cccnc3)[nH]n2)c1,-4%
Cc1cccc(OCCSc2nc3ccccc3n2CC(=O)O)c1,-10%
CC1(OC(=O)c2ccc(Cl)nc2)C(=O)C=C2C=C3CCCN3C=C2C1=O (stereo not given),?
C/C(=N\n1cnnc1)c1ccc(C#N)cc1,-7%
CCN1/C(=C\C=C(C(C)=O)C(C)=O)Sc2ccccc21,3%

# The final 7 entries of the part above lead into the next.
SMILES,VDR inh
N#Cc1c(NC(=O)CSc2ccccn2)oc(-c2ccccc2)c1-c1ccccc1,21%
Cc1cc(NC(=O)CSc2nc(C(C)C)nc3sc(C)c(C)c23)no1,-10%
Cc1cc(C)c(O)c(-c2cc(C(=O)Nc3cccnc3)[nH]n2)c1,-4%
Cc1cccc(OCCSc2nc3ccccc3n2CC(=O)O)c1,-10%
CC1(OC(=O)c2ccc(Cl)nc2)C(=O)C=C2C=C3CCCN3C=C2C1=O (stereo not given),?
C/C(=N\n1cnnc1)c1ccc(C#N)cc1,-7%
CCN1/C(=C\C=C(C(C)=O)C(C)=O)Sc2ccccc21,3%
Cc1ccc(Cc2cnc(NC(=O)CN3CCOCC3)s2)cc1Cl,-1%
CC(OC(=O)c1ccco1)C(=O)Nc1ccc(Cl)cn1 (stereo not given),-7%
O=C(c1cccnc1)N1CCN(S(=O)(=O)c2cccs2)CC1,3%
Cc1nc(CS(=O)c2ccc(Cl)cc2)cc(NCc2ccc(Cl)cc2Cl)n1 (stereo not given),-21%
CCOC(=O)Nc1cccc(OCC(=O)Nc2ccccc2OCC)c1,-9%
CCOc1cc(NC2CS(=O)(=O)CC2O)c(OCC)cc1NC(=O)c1ccccc1 (stereo not given),8%
CC(C)(C)C(=O)NNc1nc(-c2ccccc2)c2cc(Br)ccc2n1,-9%
COc1cc(C(=O)N/N=C/c2ccc(OC(=O)N3CCOCC3)cc2)cc(OC)c1OC,13%
Brc1cccc(-c2nnc3sc(CNCc4ccco4)cn23)c1,5%

# Another view of part of the listing above:
Compound	VDR inh
Cc1ccc(Cc2cnc(NC(=O)CN3CCOCC3)s2)cc1Cl	-1%
CC(OC(=O)c1ccco1)C(=O)Nc1ccc(Cl)cn1 (stereo not given)	-7%

# Screening results as filed in PubChem.

# An excerpt; rates above refer to the full screens.
